Compound activity as filed in PubChem BioAssay.
2A firefly = Primary qHTS Assay for Foot and Mouth Disease Virus Antivirals against NCGC Sytravon and CBC Compound Libraries: Firefly Luciferase Signal. Potency, µM (doses to about 57.5 µM), inactives show at the top dose signal change, negative = less light. actives 0.23% (n = 120,000). HEK cells with a luciferase reporter of 2A StopGo recoding; active = well fitted falling curve with a large enough effect; inconclusive = small, poorly fitted or top-dose-only effect; inactive = no such curve, though single readings can be large or run the other way; note: nearly all actives have a fitted effect of over 60% in size; overnight with compound
2A Renilla = Primary qHTS Assay for Foot and Mouth Disease Virus Antivirals against NCGC Sytravon and CBC Compound Libraries: Renilla Luciferase Signal | HEK cells with a luciferase reporter of 2A StopGo recoding | actives 0.32% (n = 120,000) | Potency, µM (titrated, usually from 57.5 µM), inactives show at the top dose signal change, negative = less light; active means well fitted falling curve with a large enough effect; inconclusive means small, poorly fitted or top-dose-only effect; inactive means no such curve, though single readings can be large or run the other way; note: nearly all actives have a fitted effect of over 55% in size; overnight with compound
* marks the source's active call; other numbers are inactive results; [ ] = another dose, or the depositor's remark. % is set by controls: 0 for no effect and ±100 for the full control effect; potency is the fitted concentration of half-maximal effect.

Cc1ccccc1-c1noc(-c2ccc(N3CCCC3)c([N+](=O)[O-])c2)n1 was read as 2A firefly inconclusive and 2A Renilla 12%.
NCCCOc1ccccc1 was read as 2A firefly 48%[activator] and 2A Renilla 39%[activator].
CCOc1cc(C2Nc3ccc(C)cc3[C@H]3OCCC[C@@H]23)cc(Br)c1O (stereo not given in full) was read as 2A firefly -9% and 2A Renilla -5%.
For COc1cc(OC)cc(C(=O)N2CCC(N3CCCC3)CC2)c1 the results were 2A firefly 3% and 2A Renilla 0%.
For Cc1cc(C)cc(-n2ccnc(NCCc3ccccc3)c2=O)c1 the results were 2A firefly inconclusive and 2A Renilla inconclusive.
For CC(NC(=O)c1cc(=O)c2ccccc2o1)c1ccncc1 (stereo not given) the results were 2A firefly -9% and 2A Renilla -8%.
Screening Cc1ccc(Cn2c(=O)n(Cc3ccccc3)c(=O)c3oc4ccccc4c32)cc1 returned 2A firefly -18% and 2A Renilla -9%.
`O=C(COc1ccc(Cl)cc1)N(CCCN1CCOCC1)c1nc2ccccc2s1` gave 2A firefly 0% and 2A Renilla -3%.
For CCCc1cnc2c(c1SCC(=O)N1CCC(C)CC1)c(=O)n(C)c(=O)n2C the results were 2A firefly -9% and 2A Renilla 57%[activator].
`O=C(Nc1cccc2ncccc12)C1CCCN(S(=O)(=O)c2ccccc2)C1` (stereo not given) gave 2A firefly -16% and 2A Renilla -17%.
For CCOC(=O)c1ccc(NC(=O)Cc2noc3ccc(C)cc23)cc1 the results were 2A firefly -16% and 2A Renilla -8%.
For O=S(=O)(NCC(c1ccccc1)N1CCc2ccccc21)c1ccccc1 (stereo not given) the results were 2A firefly -4% and 2A Renilla 102%[activator].
Screening CCn1c(C)cc(C(=O)COC(=O)c2csc(NCc3ccccc3)n2)c1C returned 2A firefly -3% and 2A Renilla -11%.
Screening CN1C[C@H](C(=O)N[C@]2(C)O[C@@]3(O)[C@@H]4CCCN4C(=O)[C@H](Cc4ccccc4)N3C2=O)C[C@@H]2c3cccc4[nH]cc(c34)C[C@H]21 returned 2A firefly 0% and 2A Renilla 25%.
Screening CCOc1ccc(N(c2nc(-c3ccc(OC)c(OC)c3)no2)c2nc(-c3ccc(OC)c(OC)c3)no2)cc1 returned 2A firefly 36%[activator] and 2A Renilla -4%.
Screening COc1cccc(NC(=O)CCc2nc(-c3cc(OC)c(OC)c(OC)c3)no2)c1 returned 2A firefly 0% and 2A Renilla 11%.
For COCCn1c(SCC(=O)c2ccc(F)cc2)nnc1-c1ccc(Cl)cc1 the results were 2A firefly 8% and 2A Renilla 18%.
For CC(=O)Nc1ccc(NC(=O)c2ccc(C)cc2Cl)cc1 the results were 2A firefly 32% and 2A Renilla 1%.
CC(C)CCNC(=O)c1cnc2sc(N3CCCCC3)nn2c1=O was read as 2A firefly -12% and 2A Renilla -14%.
`CCCn1nc(C(=O)NCC(c2ccc(OC)cc2)N(C)C)c2ccccc2c1=O` (stereo not given) gave 2A firefly 26% and 2A Renilla -10%.
For Cn1c(=O)c2c(ncn2CC(=O)NCCc2cccc(F)c2)n(C)c1=O the results were 2A firefly -3% and 2A Renilla -4%.
Screening O=[N+]([O-])c1cccc2cccnc12 returned 2A firefly 0% and 2A Renilla 2%.
Screening CC(C)c1ccc(Nc2c(-c3ccc(N4CCOCC4)cc3)nc3ncccn23)cc1 returned 2A firefly 33%[activator] and 2A Renilla -4%.
`Cc1nonc1CN1CCN(C(C(=O)O)c2c[nH]c3cc(Br)ccc23)CC1` (stereo not given) gave 2A firefly -24% and 2A Renilla -16%.
For COC(=O)c1ccc(Cn2c(SCc3ccccc3F)nc3ccncc32)cc1 the results were 2A firefly 0% and 2A Renilla -28%.
Screening COc1ccc(-c2nc(C)c(-c3ccccc3)s2)cc1OC returned 2A firefly 232%[activator] and 2A Renilla -5%[1.06 µM].
COc1ccc(C(=O)Nc2ccc(Cl)cc2C(=O)c2ccccc2)c(OC)c1 was read as 2A firefly 1% and 2A Renilla 12%.
Screening CCC(=O)N1CCc2cc(Br)cc(S(=O)(=O)NCCc3ccccc3)c21 returned 2A firefly 6% and 2A Renilla 127%[activator].
For CC(C)Cc1ccc(C(C)NC(=O)C2CCC2)cc1 (stereo not given) the results were 2A firefly inconclusive and 2A Renilla inconclusive.
Cc1nc(SCC(=O)N2CCN(c3ccccc3)CC2)[nH]c(=O)c1C was read as 2A firefly 0% and 2A Renilla 8%.
For CC1CCCCN1S(=O)(=O)c1ccc(F)c(C(=O)Nc2ccccc2C(F)(F)F)c1 (stereo not given) the results were 2A firefly 27% and 2A Renilla 8%.
For CCC1c2ccsc2CCN1C(=O)CCc1ccc(S(=O)(=O)N2CCCCC2)cc1 (stereo not given) the results were 2A firefly -14% and 2A Renilla 3%.
Cc1ccc(C)c(N(C)S(=O)(=O)c2ccc3[nH]cc(C(=O)NC4CCCC4)c(=O)c3c2)c1 was read as 2A firefly inconclusive and 2A Renilla inconclusive.
`CC(=O)c1ccc(O)cc1` gave 2A firefly 12% and 2A Renilla -2%.
COc1ccc(OCc2ccc(-c3nc(C#N)c(NCCc4ccccc4)o3)o2)cc1 was read as 2A firefly 9% and 2A Renilla -4%.
For Cc1cccc(-n2c(C)nc3cc(C(=O)NC4CCCCCC4)ccc32)c1 the results were 2A firefly 9% and 2A Renilla -4%.
For C/C(CC(C)C)=N\NC(=O)CCC(=O)N/N=C(\C)CC(C)C the results were 2A firefly -3% and 2A Renilla -3%.
For Cc1cc(C(F)(F)F)nn1CCc1nnc(Nc2ccn(Cc3ccccc3Cl)n2)s1 the results were 2A firefly inconclusive and 2A Renilla inconclusive.
For Cc1nn(CC(=O)Nc2ccccc2F)c(=O)c2c(C)n(-c3ccc(Cl)cc3)nc12 the results were 2A firefly -1% and 2A Renilla -18%.
COC(=O)c1ccc(Oc2coc3cc(OCc4ccc(Br)cc4)ccc3c2=O)cc1 was read as 2A firefly 3% and 2A Renilla 0%.
For CC1CCN(C(=O)Cn2cc(SCC(=O)NCc3ccccc3Cl)c3ccccc32)CC1 the results were 2A firefly -10% and 2A Renilla 1%.
Screening COc1ccc(/C=C\C(=O)NC2CC(=O)N(c3ccc(F)cc3)C2)cc1OC (stereo not given) returned 2A firefly -20% and 2A Renilla -18%.
`Cc1ccc(S(=O)(=O)Oc2ccc3oc(=O)c(-c4ccccc4)c(C)c3c2)cc1` gave 2A firefly inconclusive and 2A Renilla inconclusive.
Screening Cc1ccc(Cl)cc1NC(=O)C1CCC(CNS(=O)(=O)c2cccc3nsnc23)CC1 (stereo not given) returned 2A firefly -13% and 2A Renilla -7%.
Screening CCc1ccc(NS(=O)(=O)c2[nH]ncc2C(=O)OC)cc1 returned 2A firefly 6% and 2A Renilla 109%[activator].
For COc1ccc(/C=C(\C#N)c2nc(-c3cc(Cl)ccc3OC)cs2)cc1 the results were 2A firefly -9% and 2A Renilla -16%.
Screening Cc1[nH]c2ccccc2c1C(=O)C(=O)N1CCN(C2CC2)CC1 returned 2A firefly 6% and 2A Renilla 6%.
`CCOc1ccc(C(=O)c2oc3ccccc3c2NC(=O)c2cc(=O)c3ccc(C)cc3o2)cc1` gave 2A firefly -7% and 2A Renilla 4%.
Screening Cc1ccc(NC(=O)c2cc(F)ccc2Br)nc1 returned 2A firefly 234%[activator] and 2A Renilla 24%.
`Cc1ccc(COC(=O)c2ccccc2Sc2ccccc2C#N)cc1` gave 2A firefly 54%[activator] and 2A Renilla 37%[activator].
`Cc1c(C(=O)N2CCOCC2)c(S(=O)(=O)NCCc2ccc(Cl)cc2)c(C)n1C` gave 2A firefly -4% and 2A Renilla 47%[activator].
`Cc1cc(C)c2c(CCN)c(C)[nH]c2c1` gave 2A firefly 19% and 2A Renilla 75%[activator].
`Cc1ccc(C)n1-c1nnc(N2CCCC(C(=O)Nc3ccccc3F)C2)s1` (stereo not given) gave 2A firefly 14% and 2A Renilla 9%.
For CCCN1CCC[C@@H]2Cc3[nH]ncc3C[C@H]21 the results were 2A firefly -11% and 2A Renilla -10%.
`O=C(O)CCc1cccc(Cl)c1` gave 2A firefly 0% and 2A Renilla 22%.
COc1ccc(-c2cc(C(=O)Nc3cnn(Cc4ccc(F)cc4)c3)no2)cc1OC was read as 2A firefly -9% and 2A Renilla -1%.
CC(C)NC(=O)/C=C/c1ccc(Br)cc1 was read as 2A firefly 0% and 2A Renilla 2%.
For O=C(CSc1nc2ccccc2s1)NCCc1ccc(F)cc1 the results were 2A firefly 1% and 2A Renilla -6%.
COc1cc(-c2nc3c(c(=O)[nH]c(=O)n3Cc3ccccc3)n2C)ccc1OCc1ccccc1 was read as 2A firefly 17% and 2A Renilla -2%.
Cc1ccc(Cn2c(C)c(CNC(C)c3ccccc3)c(C(=O)O)c2C)cc1 (stereo not given) was read as 2A firefly -23% and 2A Renilla 2%.

Next section; the last 3 above are carried over.
For O=C(CSc1nc2ccccc2s1)NCCc1ccc(F)cc1 the results were 2A firefly 1% and 2A Renilla -6%.
COc1cc(-c2nc3c(c(=O)[nH]c(=O)n3Cc3ccccc3)n2C)ccc1OCc1ccccc1 was read as 2A firefly 17% and 2A Renilla -2%.
Cc1ccc(Cn2c(C)c(CNC(C)c3ccccc3)c(C(=O)O)c2C)cc1 (stereo not given) was read as 2A firefly -23% and 2A Renilla 2%.
Screening CCCCN(Cc1ccccc1)C(=O)c1oc(=O)c2ccccc2c1-c1ccc(C)cc1 returned 2A firefly 5% and 2A Renilla 8%.
CCCCn1cc(S(=O)(=O)c2ccc(CC)cc2)c(=O)c2cc(F)c(N3CCOCC3)cc21 was read as 2A firefly -8% and 2A Renilla 14%.
`NS(=O)(=O)c1ccc(CCNCC(O)COCc2ccc(Cl)cc2)cc1` (stereo not given) gave 2A firefly 0% and 2A Renilla 13%.
For COc1ccc(NC(=O)CC2C(=O)N(c3ccccc3)C(=O)N2C2CCCCC2)cc1 (stereo not given) the results were 2A firefly -12% and 2A Renilla 2%.
`CN(C)CC(NC(=O)c1ccc(CNC(N)=O)cc1)c1ccccc1` (stereo not given) gave 2A firefly -10% and 2A Renilla 4%.
For Cn1cnc2c(=O)oc3ccc(S(=O)(=O)Nc4ccc(F)cc4)cc3c21 the results were 2A firefly -16% and 2A Renilla -7%.
For CCCc1nn2c(=O)cc(COC(=O)c3cccc(NC(=O)c4ccc(OCC)cc4)c3)nc2s1 the results were 2A firefly -21% and 2A Renilla -9%.
`CCN1CCc2c(sc(NC(=O)Nc3ccc(Cl)c(Cl)c3)c2C(N)=O)C1` gave 2A firefly 24% and 2A Renilla 9%.
`COc1ccc2c(CNCCc3ccccc3)c(C(=O)O)n(Cc3cccc(F)c3)c2c1` gave 2A firefly -27% and 2A Renilla 83%[activator].
For Cc1nn(CC(=O)Nc2ccc(N3CCCCC3)cc2)c(=O)c2ccccc12 the results were 2A firefly 2% and 2A Renilla -4%.
O=C(NCC(c1cccs1)N1CCCCCC1)c1cc(=O)c2ccc(Br)cc2o1 (stereo not given) was read as 2A firefly -1% and 2A Renilla -5%.
Cc1ccc(-c2nc3cccc(C)n3c2Nc2ccc3c(c2)OCCO3)cc1 was read as 2A firefly 130%[activator] and 2A Renilla 8%.
`Cc1cccc(C(=O)Nc2c(NC3CCCCC3)c3ccccc3oc2=O)c1` gave 2A firefly 11% and 2A Renilla 2%.
O=C(Oc1ccc2c(-c3cc4cc(Br)ccc4oc3=O)cc(=O)oc2c1)N1CCOCC1 was read as 2A firefly -4% and 2A Renilla 6%.
Cc1csc(SC(C(=O)NC2CC2)c2ccc(F)cc2)n1 (stereo not given) was read as 2A firefly 5% and 2A Renilla 12%.
CC1CCC(C(C)C)C(OC(=O)COC(=O)CCC(=O)c2cccs2)C1 (stereo not given) was read as 2A firefly 3% and 2A Renilla -20%[1.06 µM].
For Cc1ccc(C(=O)Nc2ccc(C(C)C)cc2)c(Cl)c1 the results were 2A firefly 207%[activator] and 2A Renilla 13%.
For CCC(CO)NC(=O)c1nc(Cc2c[nH]c3ccccc23)no1 (stereo not given) the results were 2A firefly 18% and 2A Renilla 24%.
For CC(C)(C)NC(=O)CSc1nc2c(c(C(F)(F)F)c1C#N)CCCC2 the results were 2A firefly -5% and 2A Renilla -3%.
Screening N#C/C(=C\c1cc(Br)c(O)c(Br)c1)c1nc2ccccc2[nH]1 returned 2A firefly 245%[activator] and 2A Renilla 4%.
Screening CCN(Cc1ccccc1)Cc1c(O)ccc2oc(C)c(C(=O)Nc3ccccc3C)c12 returned 2A firefly -19% and 2A Renilla -17%.

Among those listed so far, 4 contain two or more sulfur atoms:
For CCC1c2ccsc2CCN1C(=O)CCc1ccc(S(=O)(=O)N2CCCCC2)cc1 (stereo not given) the results were 2A firefly -14% and 2A Renilla 3%.
Screening Cc1ccc(Cl)cc1NC(=O)C1CCC(CNS(=O)(=O)c2cccc3nsnc23)CC1 (stereo not given) returned 2A firefly -13% and 2A Renilla -7%.
For O=C(CSc1nc2ccccc2s1)NCCc1ccc(F)cc1 the results were 2A firefly 1% and 2A Renilla -6%.
Cc1csc(SC(C(=O)NC2CC2)c2ccc(F)cc2)n1 (stereo not given) was read as 2A firefly 5% and 2A Renilla 12%.
